Compound activity (PubChem)
Mtb MbtI inh: inhibitors of Mycobacterium tuberculosis siderophore enzyme MbtI | AID 493033 | P9WFX0 | purified MbtI enzyme, fluorescence intensity read-out | actives 0.89% (n = 100,000) | inhibition, %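 (about 17 µg/mL by stock and volumes)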;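 active = above 50% in both replicates, above 80% if mildly self-fluorescent; inactive = the rest, strongly fluorescent compounds included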;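 also: 0% = mean of negative and 100% = mean of positive controls; one replicate is shown; some compounds called inactive have numbers as strong as hits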
MenB inh: blocks the Mycobacterium tuberculosis MenB enzyme | inhibition, %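 (about 12 µg/mL by stock and volumes)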 | AID 540299 | MenB enzyme assay, absorbance read-out; some hits fall short of the stated cut | actives 0.43% (n = 100,000);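 active = mean of two replicates above 30%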;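 also: 0% = no compound and 100% = wells with inactive enzyme; the first replicate is given; strong numbers were not always called active; inactives centre near -10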
Target sequence (P9WNP5 whole entry, looked up): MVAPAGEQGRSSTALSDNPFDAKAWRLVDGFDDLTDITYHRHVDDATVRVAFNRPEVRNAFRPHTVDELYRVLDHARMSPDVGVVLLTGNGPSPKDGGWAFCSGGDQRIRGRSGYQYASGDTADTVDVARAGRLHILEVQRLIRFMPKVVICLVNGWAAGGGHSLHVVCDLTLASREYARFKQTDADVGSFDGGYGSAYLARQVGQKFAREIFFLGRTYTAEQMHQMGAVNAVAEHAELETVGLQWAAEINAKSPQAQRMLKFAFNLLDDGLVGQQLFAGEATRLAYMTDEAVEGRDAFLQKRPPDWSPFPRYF
PV pol inh: inhibitors of poliovirus RNA polymerase binding and polymerization; actives 0.66% (n = 150,000); AID 588519; P03300; poliovirus polymerase elongation, fluorescence polarization; hits give low values; % elongation, % (compound at 16.7 µg/mL); in the data active = % elongation below about 90%; also: some results filed as inactive read as strong as hits
Target sequence (P03300 1749-2209 limits assumed): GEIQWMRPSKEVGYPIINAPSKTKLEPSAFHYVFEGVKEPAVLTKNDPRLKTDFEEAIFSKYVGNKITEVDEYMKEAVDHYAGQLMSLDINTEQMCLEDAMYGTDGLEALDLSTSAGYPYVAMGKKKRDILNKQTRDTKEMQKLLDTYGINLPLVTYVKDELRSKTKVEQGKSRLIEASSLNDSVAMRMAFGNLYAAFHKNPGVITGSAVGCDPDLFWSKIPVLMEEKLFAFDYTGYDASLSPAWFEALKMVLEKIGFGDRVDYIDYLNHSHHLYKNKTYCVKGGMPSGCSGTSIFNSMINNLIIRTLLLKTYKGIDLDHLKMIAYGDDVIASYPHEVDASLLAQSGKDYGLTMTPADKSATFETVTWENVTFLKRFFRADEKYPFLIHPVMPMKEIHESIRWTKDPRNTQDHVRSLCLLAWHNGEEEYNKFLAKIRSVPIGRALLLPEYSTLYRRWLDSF
PV pol inh intensity: also measured in PV pol inh; calls as there; % elongation; measured here: total intensity read-out; formula for this scale not given here;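 total fluorescence in place of polarization; lower means less elongation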
Starred values were filed as active, the others as inactive; x = not tested or not shown; & = joins results of further samples.

1) Cc1ccc(S(=O)(=O)N(C(=O)Oc2ccccc2)c2ccc3oc(=O)sc3c2)c(C)c1
2) CC(CO)NC(=O)C1C=C2c3cccc4[nH]cc(c34)C[C@H]2N(C)C1 (some centres not stated)
3) CCCn1c(N2CCN(CC(=O)Nc3ccc(Cl)cc3)CC2)nc2ccccc21
4) COc1ccc(C(=O)Nc2ccc(N3CCN(c4ccc(OC)cc4)CC3)c(C#N)c2)cc1
5) O=C(NCc1ccc2c(c1)OCO2)C1CCC(=O)N1CCc1ccccc1 (configuration not stated)
6) O=C(CSC1=NCCS1)NC12CC3CC(CC(C3)C1)C2

compound no.	1	2	3	4	5	6
Mtb MbtI inh	-11	-450	-6	29	2	-13
MenB inh	-10	-3	14	14	20	x
PV pol inh	101	98	100	101	101	100
PV pol inh intensity	105	102	102	95	101	104

7) CSc1cccc(NC(=O)CCS(=O)(=O)c2cccc3nonc23)c1
8) Cc1ccccc1CC(=O)Nc1ccc(S(N)(=O)=O)cc1
9) CC(Oc1ccc(-c2nnco2)cc1)C(=O)Nc1cccc2ccccc12 (configuration not stated)
10) CCOc1ccc2c(c1)NC(c1ccc(C)o1)=NC(c1cccs1)=N2
11) CCCC(=O)N1c2ccccc2C(Nc2ccccc2)CC1C (configuration not stated)
12) O=C(CN1C(=O)CCc2ccccc21)NCCN1CCN(c2ccccc2F)CC1

compound no.	7	8	9	10	11	12
Mtb MbtI inh	11	-13	0	-7	-3	3
MenB inh	-29	-4	-16	2	-8	-15
PV pol inh	99	102	105	100	103	99
PV pol inh intensity	102	101	106	101	102	103

13) O=C(NCc1nc2ccccc2s1)c1cc(F)cc2c1OCOC2
14) CN1CCC(N(C)C(=O)c2ccc(S(=O)(=O)NCc3ccco3)cc2)CC1
15) CC1=CCC(C2OCC3CC=C(C)C2C3)CC1 (configuration not stated)
16) COC(=O)c1cc2sccc2n1CC(=O)Nc1ccc(C(C)C)cc1
17) CCOC(=O)C/C(C)=N/c1ncn(-c2ccc(OC)cc2)c1C(=O)c1ccccc1
18) O=c1[nH][nH]c2nnc(-c3ccccc3)c(-c3ccccc3)c12

compound no.	13	14	15	16	17	18
Mtb MbtI inh	-8	-27	x	-2	10	14
MenB inh	-23	-23	-10	10	-6	2
PV pol inh	106	106	106	104	98	100
PV pol inh intensity	108	104	109	108	100	99

19) COc1ccc2oc(=O)c(C(=O)NCCO)cc2c1
20) C=CCNC(=O)c1cnn2c(C(F)(F)F)cc(-c3cccs3)nc12
21) C(=Nc1ccc2ccccc2c1)c1ccncc1
22) O=C(Cc1ccccc1)N1CCN(c2ccc(N3CCCCC3)nn2)CC1
23) CCNC(=O)N1C2CCC(C2)C1C(=O)OCC (configuration not stated)
24) CC(C)(C)NC(=O)c1cccc2c1C(=O)N(C1CCCCC1)C2

compound no.	19	20	21	22	23	24
Mtb MbtI inh	89	x	105	-12	-10	4
MenB inh	-27	-18	7	-2	-13	-14
PV pol inh	101	109	100	102	99	102
PV pol inh intensity	100	118	101	99	103	101

25) CCCCSC1=C(C#N)C(=O)NCS1
26) Brc1ccc(OCCSc2nnc(NC3CC3)s2)cc1
27) CC(=O)Nc1ccc(S(=O)(=O)NCC2CC3CCC2C3)cc1 (configuration not stated)
28) O=C(Cn1ncc2c([nH]c3ccccc32)c1=O)NC1CCCC1
29) CCOC(=O)c1ccc2nc(NC(=O)CSc3nc(C)cc(=O)[nH]3)sc2c1
30) O=C(NCCc1ccccn1)C(F)(F)C1(F)OC(F)(F)C(F)(F)C1(F)F (configuration not stated)

compound no.	25	26	27	28	29	30
Mtb MbtI inh	3	0	-11	-13	30	-8
MenB inh	13	13	-15	0	-8	-43
PV pol inh	99	97	106	102	101	103
PV pol inh intensity	104	99	103	103	99	102

31) Oc1ccc2ccccc2c1CN1CCN(Cc2ccc3c(c2)OCO3)CC1
32) c1ccc(CN2CCCN(c3nc4c(c(NCCN5CCOCC5)n3)CCCC4)CC2)cc1
33) CCOC(=O)Cn1nnnc1CN(Cc1cc2c(C)ccc(C)c2[nH]c1=O)C1CCCCC1
34) Cc1cccc(N2C(N)=C(C#N)C(c3cc(C)ccc3C)C3=C2CCCC3=O)c1 (configuration not stated)
35) CCOc1ccc(N2C(=O)CC3(CC(C(=O)OCc4ccccc4)=NN3)C2=O)cc1 (configuration not stated)
36) O=C(CCC1CCCCC1)Nc1ncn[nH]1

compound no.	31	32	33	34	35	36
Mtb MbtI inh	x	1	-1	4	5	-5
MenB inh	-10	6	30	-5	11	-56
PV pol inh	105	101	99	99	102	103
PV pol inh intensity	98	103	100	99	103	104

37) Cc1oc(-c2ccc(C(=O)NCCN3CCOCC3)cc2)nc1CSc1ccccc1
38) Cc1ccc(NC(=O)NC(=O)c2c(-c3snnc3C)noc2C)cc1
39) O=C(NO)c1ccccc1
40) Cc1ccc(S)cc1C
41) COc1ccccc1C(OC(=O)c1cccs1)C(=O)NCc1ccco1 (configuration not stated)
42) O=C(COc1ccc(/C=N/NS(=O)(=O)c2ccccc2)cc1)N1CCOCC1

compound no.	37	38	39	40	41	42
Mtb MbtI inh	11	13	-10	22	-24	15
MenB inh	-17	-14	x	1	-39	6
PV pol inh	100	103	103	101	100	100
PV pol inh intensity	103	96	99	105	101	105

43) O=C(NCCCN1CCN(Cc2ccccc2)CC1)c1cn2cc(C(F)(F)F)cc(Cl)c2n1
44) CC(C)n1c(O)c(N=NC(=O)c2cccc(S(=O)(=O)N3CCCC3)c2)c2ccccc21
45) CN1CCN(c2ccc(NC(=O)COc3ccc(Br)cc3)cc2)CC1
46) N=c1oc2ccccc2cc1-c1nnc2n1CCCCC2
47) CCCNC(=O)c1ccc2nc(N3CCCCC3)sc2c1
48) COCCn1c(SCC(=O)c2ccc(CNC(C)=O)cc2)nc2ccccc21

compound no.	43	44	45	46	47	48
Mtb MbtI inh	-11	0	-15	-147	-11	-2
MenB inh	-10	-13	-8	x	10	-12
PV pol inh	104	104	103	102	104	102
PV pol inh intensity	109	107	103	104	105	104

49) CCN1CCCC1CNCc1ccccc1 (configuration not stated)
50) Cc1ccc(NC(=O)CN(C)Cn2nc(-c3ccco3)oc2=S)cc1
51) CC/C(=N\NS(C)(=O)=O)c1ccccc1
52) CC(C)c1cc(C(C)C)c(S(=O)(=O)N2CCN(CCO)CC2)c(C(C)C)c1
53) Cc1cccc(CC(=O)n2nc(C)cc2C)c1
54) N#CCC(=O)Nc1cccc2ccccc12

compound no.	49	50	51	52	53	54
Mtb MbtI inh	x	16	-4	-3	-18	-8
MenB inh	9	-14	-32	-28	0	x
PV pol inh	104	96	102	100	100	101
PV pol inh intensity	108	102	102	102	101	106

Some entries already given, reduced to Mtb MbtI inh and PV pol inh intensity:
cpd | Molecule | Mtb MbtI inh | PV pol inh intensity
13 | O=C(NCc1nc2ccccc2s1)c1cc(F)cc2c1OCOC2 | -8 | 108
14 | CN1CCC(N(C)C(=O)c2ccc(S(=O)(=O)NCc3ccco3)cc2)CC1 | -27 | 104

(cont.)
55) CC1(C)CC2CC(C)(CN2C(=O)COC(=O)c2cncc(Br)c2)C1 (configuration not stated)
56) O=C1c2ccccc2CC1Sc1nnc(-c2ccccn2)c(-c2ccccn2)n1 (configuration not stated)
57) CC(CN1CCCC1)C(=O)NN (configuration not stated)
58) O=C(CCc1nc2ccccc2c(=O)[nH]1)Nc1nccs1
59) Cc1cccc(C(=O)OCC(=O)N2CC(C)CC(C)C2)c1C (configuration not stated)
60) Cc1cc(NS(=O)(=O)c2ccc(NC(=S)NC(=O)c3ccccc3)cc2)no1

compound no.	55	56	57	58	59	60
Mtb MbtI inh	11	25	-17	-1	-2	-18
MenB inh	11	-6	8	-16	x	-12
PV pol inh	100	99	x	100	101	105
PV pol inh intensity	99	102	x	106	95	101

61) O=C1CN(C(=O)COC(=O)Cn2cnc3ccccc3c2=O)c2ccccc2N1
62) CCOc1ccc(-c2nc(CSCC(=O)NC3CCCC3)c(C)o2)cc1
63) N#CC(=C(/N)Sc1ccccc1N)/C(C#N)=C(\N)Sc1ccccc1N
64) COc1ccc(NC(=O)c2cc3cc(OC)ccc3oc2=N)cc1
65) Cc1ccc2oc(-c3cccc(N)c3)nc2c1
66) CCOC(=O)c1cnn2c1nc(N1CC(C)CC(C)C1)c1ccccc12 (configuration not stated)

compound no.	61	62	63	64	65	66
Mtb MbtI inh	-4	-19	23	-9	118	-44
MenB inh	-23	-21	-7	-17	-9	-4
PV pol inh	108	104	103&102	105	103	104
PV pol inh intensity	112	108	101&99	108	105	103

67) COc1cccc(NC(=S)N(Cc2ccccc2)Cc2ccc(C)o2)c1
68) CN1C(=O)N(Cc2ncc(-c3ccccc3)o2)C(=O)C1(C)C
69) COc1ccc(C=C2C(=O)OC(C)(C(C)(C)C)OC2=O)cc1 (configuration not stated)
70) CC(=O)N1CCN(C(=O)C2(NC(=O)Nc3ccc(C)cc3)CCCCC2)CC1
71) CCOC(=O)N1CCN(C(=O)C2CCN(S(=O)(=O)N(CC)CC)CC2)CC1
72) Cc1nnc2ccc(-c3ccc(NS(=O)(=O)c4ccc5c(c4)OCCO5)cc3)nn12

compound no.	67	68	69	70	71	72
Mtb MbtI inh	6	41	9	-9	-13	-16
MenB inh	-48	-7	1	-9	-26	9
PV pol inh	102	107	99	106	100	x
PV pol inh intensity	98	115	102	101	99	x

73) O=C(NCCC1=CCCCC1)c1ccc2c(c1)OCCO2
74) CSc1nc(Nc2cccc(C(F)(F)F)c2)cc(C(F)(F)F)c1C#N
75) C=CCC(C)(NCCc1ccccc1)c1ccco1 (configuration not stated)
76) O=C(CSc1nc2scc(-c3cccs3)c2c(=O)[nH]1)c1ccc[nH]1
77) Cc1ccc(-n2nnnc2SCC(=O)NN2C(=O)NC3(CCCCC3)C2=O)cc1
78) O=C(NCCN1CCN(Cc2ccccc2)CC1)Nc1ccc(OCc2ccccc2)cc1

compound no.	73	74	75	76	77	78
Mtb MbtI inh	1	-22	-6	5	9	7
MenB inh	0	-9	-36	-17	4	-20
PV pol inh	102	104	104	113	101	101
PV pol inh intensity	103	109	104	121	100	97

79) CC(=O)N(Cc1ccccc1)Cc1cc2cc(C)ccc2n2nnnc12
80) Cc1c(C(=O)NC(=S)Nc2ccc(C(=O)OC(C)C)cc2)oc2ccccc12
81) O=C(NC(=S)Nc1ccc(Nc2ccccc2)cc1)c1ccco1
82) Cc1ccc(S(=O)(=O)Cc2ccc(C(=O)N3CCN(Cc4ccccc4)CC3)o2)cc1
83) CN1C(=O)/C(=C/c2ccc(N3CCCC3)c(F)c2)C(=O)NC1=S
84) Cc1ccc(NC(=O)c2snnc2C)cc1

compound no.	79	80	81	82	83	84
Mtb MbtI inh	-3	5	3	-1	1	3
MenB inh	13	-23	-86	-13	-34	0
PV pol inh	101	101	102	100	101	101
PV pol inh intensity	101	101	106	102	102	105

85) O=c1[nH]cc(S(=O)(=O)N2CCC3(CC2)OCCO3)c(=O)[nH]1
86) CC(C)(C)c1ccc(-c2nnc(-c3ccccc3NC(=O)CCC(=O)O)o2)cc1
87) c1ccc(CCC2CCNCC2)cc1
88) CC(=O)Nc1ccc2c(COC(=O)Cc3ccc4c(c3)OCCO4)cc(=O)oc2c1
89) Cc1ccc(N2CCN(C(=O)c3sc4nc5n(c(=O)c4c3C)CCCC5)CC2C)cc1 (configuration not stated)
90) COc1ccc2nc(C)sc2c1
91) CC1=NNC(=O)C1CC(=O)N/N=C/C=C/c1ccccc1 (configuration not stated)
92) CCOc1ccc(S(=O)(=O)N=C2C=CC(=O)C=C2)cc1
93) COc1cc(-c2nnc(NC(=O)CS(=O)(=O)c3ccc(Cl)cc3)o2)cc(OC)c1OC

compound no.	85	86	87	88	89	90	91	92	93
Mtb MbtI inh	18	-30	-1	20	12	16	42	93*	14
MenB inh	-1	-21	18	-5	-2	-16	19	19	-20
PV pol inh	101	98	103	100	103	97	101	99	106
PV pol inh intensity	107	101	102	107	104	91	102	102	103

Gathered by group, the entries above with a halogen.
3) CCCn1c(N2CCN(CC(=O)Nc3ccc(Cl)cc3)CC2)nc2ccccc21
12) O=C(CN1C(=O)CCc2ccccc21)NCCN1CCN(c2ccccc2F)CC1
13) O=C(NCc1nc2ccccc2s1)c1cc(F)cc2c1OCOC2
20) C=CCNC(=O)c1cnn2c(C(F)(F)F)cc(-c3cccs3)nc12
26) Brc1ccc(OCCSc2nnc(NC3CC3)s2)cc1
30) O=C(NCCc1ccccn1)C(F)(F)C1(F)OC(F)(F)C(F)(F)C1(F)F (configuration not stated)
43) O=C(NCCCN1CCN(Cc2ccccc2)CC1)c1cn2cc(C(F)(F)F)cc(Cl)c2n1
45) CN1CCN(c2ccc(NC(=O)COc3ccc(Br)cc3)cc2)CC1

compound no.	3	12	13	20	26	30	43	45
Mtb MbtI inh	-6	3	-8	x	0	-8	-11	-15
MenB inh	14	-15	-23	-18	13	-43	-10	-8
PV pol inh	100	99	106	109	97	103	104	103
PV pol inh intensity	102	103	108	118	99	102	109	103

55) CC1(C)CC2CC(C)(CN2C(=O)COC(=O)c2cncc(Br)c2)C1 (configuration not stated)
74) CSc1nc(Nc2cccc(C(F)(F)F)c2)cc(C(F)(F)F)c1C#N
83) CN1C(=O)/C(=C/c2ccc(N3CCCC3)c(F)c2)C(=O)NC1=S
93) COc1cc(-c2nnc(NC(=O)CS(=O)(=O)c3ccc(Cl)cc3)o2)cc(OC)c1OC

compound no.	55	74	83	93
Mtb MbtI inh	11	-22	1	14
MenB inh	11	-9	-34	-20
PV pol inh	100	104	101	106
PV pol inh intensity	99	109	102	103
